Assay outcomes as filed in PubChem BioAssay.
Cruzain noTriton = inhibitors of Trypanosoma cruzi cruzain without detergent | P25779 | purified cruzain, Z-FR-AMC fluorescence, no detergent | Potency, µM, for inactives: max response, negative = inhibition, hits mostly inhibitors | actives 2.3% (n = 200,000); active means well fitted curve in the direction sought with a large enough effect; inconclusive means small, poorly fitted or top-dose-only effect, or another doubt; inactive means no such curve, though single readings can be large; an effect the other way counts as inactive or inconclusive;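 further: plate controls were enzyme without inhibitor for no effect and buffer without enzyme for full effect; nearly all actives have a fitted effect of over 40% in size; top concentration of the series not given in the record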
Target sequence (P25779 123-467 limits assumed): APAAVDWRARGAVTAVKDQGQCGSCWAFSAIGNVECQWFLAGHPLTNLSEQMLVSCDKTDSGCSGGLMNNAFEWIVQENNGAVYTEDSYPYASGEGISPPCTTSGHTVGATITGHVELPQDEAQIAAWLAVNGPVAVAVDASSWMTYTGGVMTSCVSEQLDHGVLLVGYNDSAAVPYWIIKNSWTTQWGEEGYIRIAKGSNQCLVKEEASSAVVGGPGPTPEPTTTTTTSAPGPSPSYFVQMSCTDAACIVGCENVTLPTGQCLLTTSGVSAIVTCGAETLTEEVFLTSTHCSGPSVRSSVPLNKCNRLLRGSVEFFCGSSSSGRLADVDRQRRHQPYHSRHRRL
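Detergent-free condition (0.00005% Triton X-100) in acetate buffer pH 5.5 with DTT. 1.5 nM enzyme and compound were pre-mixed 15 min, then 2 uM Z-FR-AMC substrate added; reaction progress from fluorescence change between first and third reads (60 s).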
SARS PLP yeast = SARS-CoV PLP inhibition in yeast; S. cerevisiae expressing SARS-CoV PLpro, growth rescue; control for the full effect not named in the record; Potency, µM (doses to about 32.9 µM), without a hit: at the highest dose activity, positive = growth rescue; actives 0.19% (n = 330,000); AID 485353; further: 0% is about no effect; nearly all actives have a fitted effect of over 55% in size; growth read by luminescence after 48 h
Cruzain Triton = cruzain (T. cruzi) inhibition with detergent; P25779; purified cruzain, Z-FR-AMC fluorescence, 0.01% Triton; Potency, µM, inactives show max response, negative = inhibition, most hits filed as inhibitors; actives 0.43% (n = 200,000); AID 1478; active means well fitted curve in the direction sought with a large enough effect; inconclusive means small, poorly fitted or top-dose-only effect, or another doubt; inactive means no such curve, though single readings can be large; an effect the other way counts as inactive or inconclusive;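 further: plate controls were neutral wells for no effect and buffer without enzyme for full effect; nearly all actives have a fitted effect of over 40% in size; top concentration of the series not given in the record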
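Purified cruzain (1.5 nM final) was preincubated with compounds for 15 min at room temperature in 100 mM sodium acetate pH 5.5, 5 mM DTT, 0.01% Triton X-100. Reaction started with 2 uM Z-FR-AMC; AMC fluorescence change over 60 s gave activity.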
StopGo reporter = lowers the luciferase signal of an FMDV 2A StopGo reporter; actives 1.2% (n = 410,000); human cells with a luciferase reporter of 2A StopGo recoding; control for the full effect not named in the record; Potency, µM (top dose mostly 57.9 µM), without a hit: at the top dose signal change, negative = less light; active = well fitted falling curve with a large enough effect; inconclusive = small, poorly fitted or top-dose-only effect; inactive = no such curve, though single readings can be large or run the other way; tested in HEK293T cells; further: on the % scale 0 is the no-effect control and ±100 the full control effect; nearly all actives have a fitted effect of over 45% in size; luciferase light after 4 h
NS1 inh = influenza NS1 inhibition. actives 0.4% (n = 270,000). Potency, µM (titrated, usually from 46.1 µM), for inactives: at the highest dose activity, positive = more growth. S. cerevisiae slowed by influenza A NS1, growth recovery by OD600; further: actives are rising curves; nearly all actives have a fitted effect of over 50% in size
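OD600 was taken as the measure of yeast growth restored by compound in an NS1-expressing S. cerevisiae strain. Cells had been washed out of glucose medium and diluted 1:100 into galactose -URA medium, pH 6.0.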
MARV entry inh = Marburg virus entry inhibition; Marburg virus pseudotyped entry inhibition, cell reporter; control for the full effect not named in the record; about a third of the inactives were read at about 46 µM; Potency, µM (doses to about 37.8 µM), for the others: at the highest dose activity change, negative = inhibition, hits mostly inhibitors; actives 1.8% (n = 300,000); AID 540276; active = well fitted inhibition curve with a large enough effect; inconclusive = small, poorly fitted or top-dose-only effect, or effect the other way; inactive = flat fitted curve, though single readings scatter; tested in HEK293 cells; about a fifth of its hits are not listed in these tables; further: on the % scale 0 is the no-effect control and ±100 the full control effect; luciferase read-out
LASV entry inh = inhibitors of Lassa virus binding or cell entry. Lassa virus pseudotype entry inhibition, cell reporter; control for the full effect not named in the record. Potency, µM (highest dose often 37.9 µM), inactives show at the top dose activity change, negative = inhibition, usual class: inhibitors. actives 1.2% (n = 300,000); active means well fitted inhibition curve with a large enough effect; inconclusive means small, poorly fitted or top-dose-only effect, or effect the other way; inactive means flat fitted curve, though single readings scatter; tested in HEK293 cells; further: on the % scale 0 is the no-effect control and ±100 the full control effect; nearly all actives have a fitted effect of over 50% in size; luciferase read-out
RE007 growth inh = less growth of the S. pombe RE007 Vpr strain; S. pombe RE007 Vpr strain, BacTiter-Glo ATP luminescence, 24 h; control for the full effect not named in the record; Potency, µM (doses to about 92.2 µM), inactives show top-dose activity change, negative = less growth; actives 0.21% (n = 360,000); active = well fitted falling curve with a large enough effect; inconclusive = small, poorly fitted or top-dose-only effect; inactive = no such curve, though single readings can be large or run the other way;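 further: on the % scale 0 is the no-effect control and ±100 the full control effect; nearly all actives have a fitted effect of over 50% in size; the assay follows cell death caused by Vpr and the record does not say whether a fall means rescue or toxicity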
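Fission yeast RE007 carrying one integrated HIV-1 vpr copy, seeded at OD 0.01 in PMG+AL medium with 23 nL pinned compound. Grown 24 h at 30 degrees; viability read by BacTiter-Glo luminescence after 5 min.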
Active calls of the source: *; ? = inconclusive; / = not tested or not shown; [ ] = remark or other dose. Unless noted, the call rests on the fitted dose curve; in most records, active means well fitted rising curve with a large enough effect; inconclusive means small, poorly fitted or top-dose-only effect; inactive means no such curve, though single readings can be large or run the other way. Potency means the concentration at half of the fitted maximal effect. This is a random part of the collection. Share with any hit: about 4.7%.

SMILES	Cruzain noTriton	SARS PLP yeast	Cruzain Triton	StopGo reporter	NS1 inh	MARV entry inh	LASV entry inh	RE007 growth inh
COc1cc(O)c(C(CCN2CCCCC2)c2ccc(N(C)C)cc2)c(OC)c1 (stereo unspecified)	/	-3%	/	-10%	-3%	/	/	-9%
CC(=O)Nc1ccc(S(=O)(=O)N2CCN(CC3CC4C=CC3C4)CC2)cc1 (stereo unspecified)	/	14%	/	?	2%	-14%	?	0%
O=C(NCC(c1cccs1)N1CCOCC1)c1cc(S(=O)(=O)N2CCOCC2)ccc1F (stereo unspecified)	/	-5%	/	-4%	/	?	-21%	-15%
O=C(NCc1ccco1)c1cc([N+](=O)[O-])ccc1Cl	/	0%	/	2%	0%	0%[46.1 µM]	16%	-9%
CCOc1ccccc1N1CCN(CC(=O)Nc2nnc(CC)s2)CC1	-2%	-25%	4.4%	-22%	0%	-3%	18%	4%
CCOC(=O)c1[nH]c2ccc(F)cc2c1N=C(C)N(CC)CC	-5%	1%	-5.9%	-9%	-14%	-16%	12%	-18%
CCCc1cc(=O)[nH]c2nnc(SCC(=O)N3CC(C)OC(C)C3)n12 (stereo unspecified)	/	-1%	/	-2%	/	13%[46.1 µM]	19%	2%
O=C(CSc1nc2ccc(Cl)cc2[nH]1)c1c[nH]c2ccccc12	/	0%	/	1%	3%	?	10%[46.1 µM]	-6%
CN(C)C(=S)Nc1nc2ccccc2s1	/	-3%	/	34%[activator]	-62%	/	/	-25%
O=C(COc1ccc(Br)cc1Cl)NC1CCCCC1	0%	1%	-5.1%	-29%	0%	?	8%	4%
O=C(NCc1ccc2c(c1)OCO2)C1CCCN(S(=O)(=O)c2cccc3nonc23)C1 (stereo unspecified)	-23%	-16%	-8.3%	-23%	10%	?	5%	-5%
CCC1(CC)NC(=O)N(CC(=O)NC(=O)NCc2ccccc2)C1=O	/	2%	/	-29%	14%	2%[46.1 µM]	5%	-4%
Cc1cccc(NC(=S)NNC(=O)c2cc3c(s2)CCC(C)C3)c1C (stereo unspecified)	-5%	55%	-8.2%	-5%	-25%	11%	0%	11%
N/C(Cn1cncn1)=N\OC(=O)c1ccc(Cl)cc1	/	0%	/	4%	/	-26%[46.1 µM]	11%	16%
CC(=O)c1cnc2nc(SCc3ccccc3)nn2c1C	/	1%	/	69%[activator]	-6%	/	/	9%
CCCc1cc(=O)oc2cc(OC(C)C(=O)NCC3CCC(C(=O)O)CC3)ccc12 (stereo unspecified)	/	3%	/	0%	4%	/	/	-9%
Cc1ccc(OCC(=O)NC2CC(C)(C)NC(C)(C)C2)cc1C	/	0%	/	-23%	2%	?	1%	1%
COc1cccc(OC)c1C(=O)Nc1c(C)n(C)n(-c2ccccc2)c1=O	2%	0%	1.4%	/	17%	-20%	?	11%
O=C(c1ccccn1)N1CCCC(N2CCN(Cc3ccc4c(c3)OCO4)CC2)C1 (stereo unspecified)	/	4%	/	11%	3%	?	18%	?
Brc1ccc(CN2CCN(Cc3c[nH]c4ccccc34)CC2)cc1	/	-3%	/	-19%	-1%	?	?	4%
O=C(CN1CCN(c2ccccc2F)CC1)c1ccc2c(c1)OCO2	-5%	-4%	1.2%	18%	-61%	4%	-4%	1%
O=C(c1ccc(F)cc1)C(Cc1ccccc1)N1CCCCC1 (stereo unspecified)	/	0%	/	39%[activator]	3%	0%	18%	0%
CCn1nc(C(=O)N2CCc3ccccc32)c2ccccc2c1=O	/	0%	/	0%	/	-12%	-3%	12%
Cc1ccc(NC(=O)c2cccs2)cc1NC(=O)c1ccco1	-1%	-14%	-5.4%	8%	-10%	-9%	-4%	8%
CCCC1=C(C(=O)OCC)C(c2ccccc2OC)NC(=O)N1 (stereo unspecified)	-17%	2%	4.6%	-10%	3%	4%	-1%	1%
CCOc1ccc(NC(=O)CSc2nnc(-c3ccc(C)cc3)c(-c3ccc(C)cc3)n2)cc1	-21%	/	2.8%	-22%	/	/	14%[46.1 µM]	/
CCN1CCN(C(=S)c2ccc(SC)cc2)CC1	5%	12%	-7.9%	7%	-1%	?	-8%	-5%
COC(=O)[C@H](Cc1ccccc1)NC(=O)NC(C)CCc1ccccc1 (stereo partly specified)	/	-1%	/	-24%	-11%	/	/	2%
Cc1ccc(OCCn2cnc3c2c(=O)n(C)c(=O)n3C)cc1	/	0%	/	?	1%	-15%[46.1 µM]	-14%	7%
Cc1ccc(OCC(=O)N(Cc2nc(-c3ccccc3)no2)C(C)C)cc1C	1%	/	-0.3%	-11%	/	/	22%[46.1 µM]	/
CC(C)CCn1c(SCCN2CCOCC2)nc2c1c(=O)[nH]c(=O)n2C	7%	0%	0.0%	-4%	10%	20%[46.1 µM]	-6%	-16%
COC(=O)CN1C(=O)C(C)(C)Oc2ccc(C(=O)NC3CCCC3)cc21	/	-1%	/	-5%	21%	14%[46.1 µM]	-10%	-10%
CC(C)N(C(=O)CSc1nc2ccccc2n1-c1ccccc1)C(C)C	-6%	-14%	-4.1%	-18%	-21%	2%	-10%	8%
